rRNA inh HTS: inhibitors of bacterial rRNA selective over humanized ribosomes. 350,000 compounds, 1.6% hits. E. coli WT GFP vs humanized-ribosome RFP mutants, fluorescence, 24 h; active compounds read low; DMSO median 0, no signal -100. AID 720706. GFP signal change (wild-type ribosome), % (no concentration beside the values);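 active = significant combined selectivity score with lowered wild-type GFP, culture density cut under 30%, mutant RFP and density less affected; inactive = any of these conditions unmet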; also: one replicate is shown; some compounds called inactive have numbers as strong as hits
rRNA inh HTS OD600: also measured in rRNA inh HTS; calls as there; OD600 change, %; measured here: OD600 growth;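 optical density of the mix in the first replicate; 0 = DMSO median and -100 = no signal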
rRNA inh HTS RFP: further read-out of rRNA inh HTS, marked with its call; RFP signal change, %; measured here: RFP humanized mutant strains;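 first replicate; 0 = DMSO median and -100 = no signal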
Starred values were filed as active, the others as inactive; & = joins results of further samples.

SMILES	rRNA inh HTS	rRNA inh HTS OD600	rRNA inh HTS RFP
CN1CCN(C(=O)C[C@@H]2CC[C@H]3[C@H](COc4ccc(NC(=O)c5cccs5)cc4C(=O)N3C)O2)CC1	2.0	4.2	-2.0
CC(C)NC(=O)Nc1ccc2c(c1)CC(=O)N([C@@H](C)CO)C[C@H](C)[C@H](CN(C)C(=O)Nc1ccc(F)cc1)O2	3.1	7.2	-2.4
C[C@@H]1CN([C@@H](C)CO)C(=O)CCCn2nncc2CO[C@H]1CN(C)Cc1ccc(C(F)(F)F)cc1	7.4&-3.6	9.2&-1.8	-0.5&2.4
Cc1ccc(S(=O)(=O)N(C)C[C@@H]2OCCCC[C@H](C)Oc3ccc(NC(=O)Nc4ccccc4)cc3C(=O)N([C@@H](C)CO)C[C@H]2C)cc1	0.1	7.9	-1.1
C[C@@H]1CN([C@@H](C)CO)S(=O)(=O)c2ccc(-c3ccncc3)cc2O[C@H]1CN(C)C(=O)Nc1ccc(C(F)(F)F)cc1	1.3	-5.0	-0.8
COc1ccc2c3c([nH]c2c1)[C@@H](CO)N(C)CC31CCN(S(=O)(=O)c2ccc(C)cc2)CC1	-4.1	-9.4	2.2
C[C@H](CO)N1C[C@H](C)[C@H](CN(C)C)Oc2c(NS(=O)(=O)c3cccs3)cccc2C1=O	3.0	2.4	0.8
O=C(C[C@H]1CC[C@@H]2[C@H](COC[C@@H](O)CN2Cc2ccc3c(c2)OCO3)O1)N1CCOCC1	5.0	2.5	-1.3
C[C@@H]1CN([C@H](C)CO)C(=O)c2cc(NS(=O)(=O)c3cccs3)ccc2O[C@@H]1CN(C)CC1CC1	1.2	-3.1	0.3
CCCC#Cc1ccc([C@@H]2[C@@H](CO)N(C(=O)C3CCOCC3)[C@H]2C#N)cc1	2.5	10.4	0.3
COCC(=O)N1CCCCN2[C@H](CO)[C@H](c3ccc(-c4ccc(C)cc4)cc3)[C@@H]2C1	0.2	8.1	-1.7
Cc1noc(C)c1S(=O)(=O)N(C)C[C@H]1Oc2ccc(N(C)C)cc2CC(=O)N([C@@H](C)CO)C[C@@H]1C	2.0	0.1	-1.5
COCCNC(=O)C[C@H]1CC[C@H]2[C@H](COc3ccc(NC(=O)C4CCCC4)cc3C(=O)N2C)O1	5.0	4.3	-3.1
CCCCCCNC(=O)O[C@H]1C[C@@H]2C(=O)N(c3ccccc3)C(=O)[C@@H]2[C@@H]2CN(S(=O)(=O)c3ccc(C)cc3)C[C@]12O	-0.7	4.1	-1.6
C[C@@H]1CCCCO[C@@H](CN(C)Cc2ccc3c(c2)OCO3)[C@H](C)CN([C@@H](C)CO)C(=O)c2cc(NS(=O)(=O)c3ccc(F)cc3)ccc2O1	2.2	-3.5	0.1
CCCC#Cc1cnc2c(c1)C(=O)N([C@@H](C)CO)C[C@@H](C)[C@@H](CN(C)C(=O)Nc1cc(F)ccc1F)O2	4.7	23.5	4.8
Cc1ccc(-c2cnc3c(c2)C(=O)N([C@@H](C)CO)C[C@H](C)[C@H](CN(C)C(=O)c2ccccc2)O3)cc1	-1.8	-5.9	-0.5
N#C[C@H]1[C@H](c2ccc(C#Cc3ccc(F)cc3)cc2)[C@H](CO)N1C(=O)Nc1ccc(F)cc1	-20.9	-55.0	19.9
COC(=O)C[C@H]1CC[C@H]2[C@H](COc3ccc(NC(=O)c4ccccc4F)cc3C(=O)N2C)O1	-0.2	-5.5	-1.2
O=C(Nc1cccc(Cl)c1)N1C[C@H]2[C@@H](c3ccccc31)[C@@H](CO)N2C(=O)c1cccnc1	-15.5	-7.5	2.7
COc1ccccc1-c1ccc2c(c1)O[C@H](CN(C)C(C)=O)[C@H](C)CN([C@H](C)CO)S2(=O)=O	-5.7	-3.6	-0.9
CCc1nc2ccc(C(=O)NCc3cccs3)cn2c1N(CC)CCN(C)C	2.3	12.2	-5.2
COc1cccc(S(=O)(=O)N[C@@H]2CC[C@H](CCn3cc(-c4ccccc4OC)nn3)O[C@@H]2CO)c1	-3.8	-17.6	3.0
COC(=O)[C@H]1[C@H](CO)[C@H]2Cn3c(ccc(C4=CCCCC4)c3=O)[C@H]2N1CC1CCCCC1	-3.7	-17.1	11.4
OC(c1ccccc1)C1(c2ccccc2)CCN(Cc2ccccc2)CC1 (stereo unspecified)	6.5	-16.6	0.5
COc1ccc2c3c(n(C)c2c1)[C@@H](CO)N(C(=O)Cc1ccccn1)CC31CN(C)C1	5.1	13.9	0.8
Cc1ccc(S(=O)(=O)N(C)C[C@H]2Oc3ccc(N(C)C)cc3C(=O)N([C@H](C)CO)C[C@@H]2C)cc1	-1.5	5.2	-0.3
CCCNC(=O)Nc1ccc2c(c1)C(=O)N(C)C[C@@H](OC)[C@@H](C)CN(S(C)(=O)=O)[C@H](C)CO2	2.6	3.6	-1.6
C[C@@H]1CN([C@H](C)CO)C(=O)c2cc(NS(=O)(=O)c3ccc(F)cc3)ccc2O[C@@H](C)CCCCO[C@@H]1CN(C)C(=O)NC1CCCCC1	-1.5	-7.9	3.2
C[C@H](CO)N1C[C@H](C)[C@H](CN(C)Cc2ccccc2)Oc2c(NC(=O)NC3CCCCC3)cccc2C1=O	4.0	-1.8	-1.3
CC(C)c1ccc(NC(=O)Nc2nc(C(N)C3CCCCC3)cs2)cc1 (stereo unspecified)	-62.5	-80.8	-17.8
COc1ccc(CNC(=O)C[C@H]2CC[C@@H]3[C@H](COc4ccc(NC(=O)C(C)C)cc4C(=O)N3C)O2)cc1	3.5	-1.2	-3.1
CCOC(=O)/C=C/c1cccc(C)c1O	0.1	-4.1	1.0
CN1OC[C@@H]2CN(C(=O)c3ccc(-c4ccccc4)cc3)[C@H](c3ccc(-c4cccc(F)c4)cc3)C[C@@H]21	16.9	9.7	2.2
Cc1noc(C)c1S(=O)(=O)Nc1ccc2c(c1)C(=O)N([C@@H](C)CO)C[C@@H](C)[C@H](CN(C)C(=O)c1ccncc1)OCCCC[C@@H](C)O2	2.6	12.2	-1.2
CCc1nc2ccc(C(=O)Nc3cccc(OC)c3)cn2c1N(CCC(C)C)CCN(C)C	7.6	4.2	15.6
C/C=C/c1cccc(-c2nc(C(=O)NC3CCCC3)cc3c2[C@@H](CCO)N(S(=O)C(C)(C)C)C3)c1 (stereo partly specified)	2.3	4.1	5.8
O=C(/C=C/[C@H]1O[C@@H](n2ccc(=O)[nH]c2=O)[C@H](O)[C@@H]1O)NCc1ccco1	1.9	14.2	-2.8
CCOc1ccc(NC(=O)CSc2nc3cc(C(=O)NCC4CCCO4)ccc3c(=O)n2CC2CCCO2)cc1 (stereo unspecified)	-3.1	-11.5	-1.9
C[C@H]1CN([C@@H](C)CO)C(=O)c2cc(NS(C)(=O)=O)ccc2O[C@H]1CN(C)Cc1ccc(Cl)c(Cl)c1	-5.5	-2.1	3.3
N#C[C@@H]1[C@H](c2ccccc2C2=CCCC2)[C@H](CO)N1C(=O)Cc1ccncc1	-0.4	-18.5	-1.6
O=C(Nc1ccccc1F)N1CCCCN2[C@H](CO)[C@H](c3ccc(C#Cc4ccccc4)cc3)[C@H]2C1	-58.5	-72.3	-10.1
COc1ccc(S(=O)(=O)N(C)C[C@@H]2Oc3c(NC(=O)C4CCCCC4)cccc3C(=O)N([C@@H](C)CO)C[C@@H]2C)cc1	-5.3	-4.5	-1.2
CC=Cc1ccc2n(c1=O)C[C@@H]1[C@@H](CO)[C@H](C(=O)NCCC)N(C(=O)CC3CC3)[C@H]21 (mixture of isomers)	1.1	2.5	-2.8
CN(C)C(=O)C[C@@H]1CC[C@H]2[C@@H](COc3ccc(NC(=O)NCc4ccccc4)cc3C(=O)N2C)O1	4.2	7.6	5.9
CN(C)c1ccc2c(c1)[C@@H]1C[C@@H](CC(=O)NCc3cc(F)ccc3F)O[C@@H](CO)[C@@H]1O2	2.3	-5.4	5.4
COc1ccc(-c2csc(C(O)c3ccc(F)cc3)n2)cc1 (stereo unspecified)	-8.3	-38.8	-7.5
CCNC(=O)C[C@H]1C=C[C@H](NS(=O)(=O)c2ccc(C)cc2)[C@H](CO)O1	1.6	0.4	0.6
CCC(=O)N1C[C@@H](C)[C@@H](OC)CN(C)C(=O)c2ccc(NC(=O)C3CCCCC3)cc2OC[C@@H]1C	-4.9	-6.8	-1.1
C[C@@H]1CN([C@H](C)CO)C(=O)c2cc(NC(=O)C3CC3)ccc2O[C@@H]1CN(C)Cc1ccc(C(F)(F)F)cc1	-0.9	4.2	-1.2
CN1OC[C@@H]2CN3C(=NCCc4ccccc4)Sc4ccccc4[C@@H]3C[C@@H]21	9.4	3.1	1.9
C[C@H](NC(=O)c1ccccc1)C(=O)OCC(=O)Nc1ccc(Cl)cn1	1.9	4.3	2.7
C[C@H](CO)N1C[C@H](C)[C@H](CN(C)C(=O)C2CC2)Oc2ncc(C#Cc3cccc(F)c3)cc2C1=O	0.3	-9.5	1.5
C[C@H]1CN([C@@H](C)CO)C(=O)c2cc(C#CCN(C)C)cnc2O[C@@H]1CN(C)S(C)(=O)=O	1.4	2.2	-1.4
C[C@@H](NC(=O)C[C@@H]1CC[C@H]2[C@@H](COC[C@H](O)CN2Cc2ccc(C(F)(F)F)cc2)O1)c1ccccc1	-4.6	-40.9	-3.0
C[C@H]1CCCCO[C@H](CN(C)S(=O)(=O)c2ccc(Cl)cc2)[C@@H](C)CN([C@@H](C)CO)C(=O)c2cc(NC(=O)c3ccccc3)ccc2O1	0.4	2.6	2.1
C[C@H]1CN([C@@H](C)CO)C(=O)c2cc(NC(=O)C3CC3)ccc2O[C@H]1CN(C)Cc1ccc(Oc2ccccc2)cc1	-2.3	-43.7	28.4
O=C(N[C@H]1CC[C@H](CCNS(=O)(=O)c2ccc(Cl)cc2)O[C@@H]1CO)c1cccnc1	-8.2	-3.3	9.1
OC[C@H]1[C@@H](c2ccccc2)C2(CN(Cc3nccs3)C2)N1Cc1cc(F)ccc1F	-13.8	-21.6	2.4
COc1ccccc1NC(=O)N[C@H]1CC[C@@H](CCNS(=O)(=O)c2ccccc2)O[C@@H]1CO	0.3	-5.3	-7.7
The listing continues:
SMILES	rRNA inh HTS	rRNA inh HTS OD600	rRNA inh HTS RFP
C[C@H]1CN([C@@H](C)CO)C(=O)c2cccc(NS(=O)(=O)c3ccccc3)c2O[C@@H]1CN(C)C(=O)NC1CCCCC1	1.5	10.2	2.8
O=C(C[C@H]1CC[C@@H]2[C@H](COC[C@H](O)CN2CCc2ccccc2)O1)NCc1ccc(F)cc1	-3.1	-3.4	3.4
C[C@@H]1CCCCO[C@H](CN(C)S(=O)(=O)c2ccccc2)[C@H](C)CN([C@@H](C)CO)C(=O)c2cc(NC(=O)NC3CCCCC3)ccc2O1	-3.3	5.2	2.2
O=S(=O)(c1ccccc1)N1CC[C@@H]2[C@@H](CO)Nc3ccc(C#Cc4cccc(F)c4)cc3[C@@H]21	-1.0	3.3	-0.9
C[C@H](CO)N1C[C@H](C)[C@@H](CN(C)C(=O)Nc2ccc3c(c2)OCO3)OCCCC[C@H](C)Oc2ccc(NS(=O)(=O)c3ccccc3)cc2C1=O	-2.3	-7.1	-0.7
O=C(C[C@@H]1C=C[C@@H](NC(=O)C2CC2)[C@H](CO)O1)NCc1ccccc1Cl	1.3	-1.7	-0.4
C[C@H](CO)N1C[C@H](C)[C@@H](CN(C)C(=O)C2CCCCC2)Oc2cc(-c3cccnc3)ccc2S1(=O)=O	-0.3	8.6	-2.6
CN1C(=O)c2cc(NC(=O)c3ccc(F)c(F)c3)ccc2OC[C@@H]2O[C@@H](CC(=O)N3CCOCC3)CC[C@@H]21	-0.6	-2.9	-3.8
COC(=O)C[C@@H]1CC[C@H]2[C@@H](COc3ccc(NC(=O)c4ccc(OC)cc4)cc3C(=O)N2C)O1	-2.9	-1.7	-1.5
COc1ccc(NC(=O)Nc2ccc3c(c2)[C@@H]2C[C@H](CC(=O)N(C)C)O[C@@H](CO)[C@@H]2O3)cc1	-2.9	-8.2	-1.8
CCCNC(=O)N1CC2(CN(CC3CCCCC3)C2)c2c(n(C)c3cc(OC)ccc23)[C@@H]1CO	-4.0	-17.0	-0.2
CN(C)CCCNC(=O)C[C@@H]1CC[C@H]2[C@H](COc3ccc(NC(=O)NC4CCCC4)cc3C(=O)N2C)O1	1.2	-2.4	0.6
COC(=O)C[C@@H]1CC[C@H]2[C@@H](COc3ccc(NC(=O)Nc4ccc(C#N)cc4)cc3C(=O)N2C)O1	-7.9	-18.8	0.5
C[C@@H]1CN([C@H](C)CO)C(=O)c2cccc(NC(=O)Nc3ccccc3)c2O[C@@H]1CN(C)S(=O)(=O)c1cccs1	-7.5	-9.7	0.9
C[C@H]1CN([C@@H](C)CO)C(=O)Cc2cc(NC(=O)Cc3cn(C)c4ccccc34)ccc2O[C@H]1CN(C)Cc1ccc(C(F)(F)F)cc1	1.2	-8.4	3.3
O=C(C[C@H]1CC[C@@H]2[C@H](COC[C@@H](O)CN2C(=O)c2cnccn2)O1)NCc1ccc(Cl)cc1	0.9	-7.1	-1.5

Limited to rRNA inh HTS (four entries from above):
Structure | rRNA inh HTS
COc1ccc(NC(=O)Nc2ccc3c(c2)[C@@H]2C[C@H](CC(=O)N(C)C)O[C@@H](CO)[C@@H]2O3)cc1 | -2.9
COC(=O)C[C@@H]1CC[C@H]2[C@@H](COc3ccc(NC(=O)Nc4ccc(C#N)cc4)cc3C(=O)N2C)O1 | -7.9
CCCNC(=O)N1CC2(CN(CC3CCCCC3)C2)c2c(n(C)c3cc(OC)ccc23)[C@@H]1CO | -4.0
C[C@H](CO)N1C[C@H](C)[C@@H](CN(C)C(=O)C2CCCCC2)Oc2cc(-c3cccnc3)ccc2S1(=O)=O | -0.3

Screening data: PubChem, Broad Institute

The list is partial. The share of hits here may be higher or lower than overall.
